# BmaI1 enzyme – BmaI1 acyl-homoserine lactone synthase inhibition – biochemical, fluorescence intensity, with counterscreen (AID 720554) | BmaI1 enzyme assay, fluorescence intensity; stronger effect = higher value; test concentration not given here; a few actives read low; strong numbers were not always called active | 12,000 compounds, 0.4% hits | inhibition, %;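 active = both replicates within 2 robust z-scores of the inhibited control and a quiet counterscreen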;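 also: 0% = uninhibited enzyme and 100% = inhibited control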
# BmaI1 enzyme counterscreen – also measured in BmaI1 enzyme; calls as there; inhibition, %; measured here: counterscreen; design of the counterscreen not given here;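 first of two replicates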
# The depositor's hits bear a star.
SMILES,BmaI1 enzyme,BmaI1 enzyme counterscreen
NC(=O)Cn1nc(C(=O)O)c2ccccc2c1=O,6,-2
Cc1cc(C)c(C(=O)Cn2c(=O)oc3ccccc32)c(C)c1,14,6
C[C@]12C=CC(=O)C=C1CC[C@@H]1[C@@H]2C(=O)C[C@@]2(C)[C@H]1CC[C@]2(O)C(=O)CO,0,4
Cc1nnc(N/N=C/c2c(O)n(-c3cccc(C(F)(F)F)c3)c(=O)c3ccccc23)[nH]c1=O,69,38
CC(C)OC(=O)c1cccc(-c2nn[nH]n2)c1,2,-2
CC1CCCCN1C(=O)COC(=O)c1ccc2[nH]c3c(c2c1)CCCC3 (configuration not stated),9,0
CN(C)S(=O)(=O)c1ccc(NC(=O)CN(C)S(=O)(=O)c2ccc(Cl)cc2)cc1,11,12
O=C(CSc1nnc(COc2ccccc2Cl)o1)NC12CC3CC(CC(C3)C1)C2,16,8
CNc1ccccc1C(C)(C)c1cc(-c2ccc(Cl)cc2)no1,19,12
Cc1noc(C)c1CSCC(=O)NC1=NCCS1,18,1
CN(C)S(=O)(=O)c1ccc2c(c1)nc(CCC(=O)N1CCc3ccccc3C1)n2C,-10,-8
O=C(Cn1cnc2sccc2c1=O)N1CCCC1c1ccc2c(c1)OCCCO2 (configuration not stated),13,2
Cc1noc(C)c1COC(=O)c1cc(S(=O)(=O)NC(C)C)ccc1Br,16,12
Cc1cc(C(=O)COC(=O)c2ccco2)c(C)n1CC1CCCO1 (configuration not stated),6,4
Nc1cc(N)nc(SCC(=O)NCCN2C(=O)CSC2=O)n1,3,2
COC(=O)c1ccc2c(=O)[nH]c(COC(=O)CNC(=O)c3cccs3)nc2c1,20,9
O=C(OCC(=O)c1ccc[nH]1)c1ccccc1,8,10
Cc1[nH]c(=O)c(C#N)c(C)c1CCC(=O)O,8,10
FC(F)Sc1ccc(N=C=S)cc1,29,14
CC(C)C1C(C#N)=C(N)Oc2n[nH]c(-c3ccccc3)c21 (configuration not stated),30,19
CC1(C)CC2CC(C)(CN2C(=O)COC(=O)c2ccc(S(=O)(=O)NCc3ccco3)cc2)C1 (configuration not stated),13,8
CN1CC(=O)N(CCCC(=O)OCc2c(Cl)cccc2Cl)C1=O,7,-2
O=C(COC(=O)CC1SC(N2CCCC2)=NC1=O)Nc1ccc(Br)cc1 (configuration not stated),10,8
Cc1ccc(/C=C/C(=O)OC(C)C(=O)c2cccc(Cl)c2)o1 (configuration not stated),14,8
CN(CC(=O)Nc1ccccc1)CC(=O)Nc1ccc(F)cc1,8,12
O=C(COC(=O)/C(=C/c1cccs1)c1cccs1)Nc1ccccc1,6,6
CCCCC(=O)OCc1nc(N)nc(Nc2ccccc2C)n1,8,2
COC(=O)C1CCN(c2c(N)n(Cc3ccccc3)c(=O)[nH]c2=O)CC1,44,30
CC1CN(CC(=O)Nc2ccc(C#N)cc2)CC(C)O1 (configuration not stated),-2,-2
O=C(O)c1c(-n2cccc2)sc2c1CCSC2,38,12
O=C(Nc1cccc(C(F)(F)F)c1)C1CC2CCCC(C1)C2=O (configuration not stated),9,0
Cc1ccc(C(=O)Nn2cnc3scc(-c4cccs4)c3c2=O)c(O)c1,7,-1
O=S1(=O)CCN2C=CSC2=N1,17,12
Cc1ccc(-n2c(SCC(=O)c3cn(CCC#N)c4ccccc34)nnc2-c2ccccc2)cc1C,7,2
COc1ccc(-n2c(C)cc(C(=O)COC(=O)c3ccc(O)cc3O)c2C)cc1,10,-2
COc1cc(S(=O)(=O)N2CCOCC2)ccc1NC(=O)COC(C)=O,5,2
Cc1noc(C)c1CSc1nc(-c2ccccc2)cs1,-11,-7
O=C(/C=C/c1ccco1)N(Cc1ccccc1)c1ccccc1,12,3
Cc1cc2occ(CC(=O)OCc3cc(=O)n4c(n3)sc3ccccc34)c2cc1C,5,-2
N#CC(C#N)=Cc1cccc(OC(F)F)c1,-17,-6
Fc1ccc(COc2cn(-c3ccccc3)nn2)cc1,7,12
CC1CN(C(=O)COc2ncnc3c2cnn3-c2ccccc2)CC(C)O1 (configuration not stated),20,12
NS(=O)(=O)c1ccc(CCNC(=O)c2c(-n3cccc3)sc3c2CCCC3)cc1,10,2
CC(Oc1ccc(Oc2ccccc2)cc1)C(=O)NC1CC1 (configuration not stated),8,5
CCn1c(O)c(C=NCCCCCc2nc(-c3ccc(C)cc3)no2)c(=O)n(CC)c1=S,13,15
COc1ccc(C(=O)CSc2n[nH]c(=O)[nH]c2=O)cc1,8,6
COC(=O)C(C)Sc1nnc(-c2ccc(OC)cc2)n1-c1ccccc1 (configuration not stated),8,4
Cc1cc2nc(N3CCOCC3)c3ccccc3n2n1,6,8
CCOC(=O)C1CCCN(Cc2cc(=O)n3ccsc3n2)C1 (configuration not stated),-2,-6
CCN(c1ccccc1)S(=O)(=O)c1cccc(C(=O)O)c1,0,1
O=C(Oc1ccc2c(c1)OCO2)c1ccncc1,62,25
O=S(=O)(Cc1ccccc1)N1CCN(Cn2c(SC(F)F)nc3ccccc32)CC1,-10,0
Cc1cc(C)c(C2=CSC3=NS(=O)(=O)CCN23)c(C)c1,0,-2
Cc1cccc(CCN2CCC(C(=O)c3ccc(NS(C)(=O)=O)cc3)CC2)n1,54,5
CCOC(=O)c1c(C)oc(NC(=O)COc2ccc(Cl)cc2Cl)c1C#N,21,0
CC(C)(C)C(=O)/C=c1\[nH]c(=O)/c(=C\c2cn(CCC#N)nc2-c2ccccc2)s1,2,4
CC(=O)Nc1ccc(S(=O)(=O)NCC(=O)OCc2cc(=O)n3cc(Br)ccc3n2)cc1,7,6
CNC(=O)COC(=O)c1nc(Cl)c(Cl)c(Cl)c1Cl,0,-4
COc1ccc2ccc(Oc3ncccn3)cc2c1,8,8
O=C(Cc1csc(-c2ccccc2)n1)Nc1cccnc1,11,22

# Further results follow:
SMILES,BmaI1 enzyme,BmaI1 enzyme counterscreen
CC(OC(=O)c1ccccc1NS(C)(=O)=O)C(=O)Nc1ncc(Cl)cc1Cl (configuration not stated),19,16
CC(C#N)Sc1nn(-c2ccc(Cl)c(Cl)c2)c(=S)s1 (configuration not stated),18,15
CN(C)C(=O)CSc1nc2ccc(Cl)cc2[nH]1,2,10
Fc1cc(Br)ccc1N=Cc1ccco1,30,2
O=C(CNS(=O)(=O)c1cccc(C(F)(F)F)c1)NC1CCCCCC1,14,14
Cc1sc2c(c1C)C1=NS(=O)(=O)CCN1C=N2,88*,10*
CCOC(=O)C1=C(CSc2nnc(-c3cccs3)n2-c2ccccc2)NC(=O)NC1C (configuration not stated),24,9
COC(=O)c1ccc2c(=O)[nH]c(COC(=O)c3ccc4c(c3)OCCO4)nc2c1,12,0
CCn1c(N)c(C(=O)COC(=O)c2c(C)nn(Cc3ccccc3)c2Cl)c(=O)[nH]c1=O,10,8
O=C(OCCOc1ccc(Br)cc1)c1cccs1,14,12
COc1ccccc1NS(=O)(=O)c1ccc2oc(SC)nc2c1,4,4
O=c1cc(CN2CC=C(c3ccccc3)CC2)nc2scc(-c3ccccc3)n12,19,6
Cc1nn(-c2ccccc2)c(C)c1CN(C)Cn1c(=O)oc2ccccc21,10,9
COc1ccc2ccccc2c1/C=N/NC(=O)C1CC1,6,0
O=C(OCCN1CCCC1=O)c1ccc(F)cc1F,4,-2
COc1cc(N)c(Cl)cc1C(=O)OCC(=O)Nc1ccc(N2CCOCC2)cc1,9,8
Cn1nc(C(=O)NC2CCCCCC2)ccc1=O,12,10
COc1cccc(N(C)C(=O)c2nn(Cc3ccccc3)c(=O)c3ccccc23)n1,14,15
CCOC(=O)c1sc(N=NC2=C(O)CCCC2=O)c(C(=O)OCC)c1C,11,14
O=C(Cn1c(COc2ccccc2)nc2ccccc21)NC1=NCCS1,12,-2
O=C(c1cc2ccccc2o1)N1CCCC(c2nc3ccccc3s2)C1 (configuration not stated),20,15
CC(OC(=O)c1ncc(Cl)c(Cl)c1Cl)C(=O)N1CCOCC1 (configuration not stated),6,5
O=C(OC(c1ccccc1)c1ccccc1)c1ccncc1,14,14
COc1cc(C(=O)OCC(=O)N(C)C2CCS(=O)(=O)C2)ccc1OCc1c(C)noc1C (configuration not stated),-4,-6
Cc1cc(NCC(c2ccccc2)N(C)C)nc2ccccc12 (configuration not stated),8,9
NC(=O)CSc1n[nH]c(COc2ccc(Cl)cc2)n1,14,14
CCOc1ccc(C(=O)CCC(=O)N2CCN(C(=O)C3CC3)CC2)cc1,18,2
CC1=NS(=O)(=O)c2cc(Cl)ccc2N1,6,0
CCC(C)C(C(=O)Nc1ccc(N2CCOCC2)cc1N1CCOCC1)c1ccccc1 (configuration not stated),20,8
CN(C)S(=O)(=O)c1cccc(COC(=O)c2nn(C)c(=O)c3ccccc23)c1,16,14
Cc1ccccc1OCCSc1nnc(-c2ccc3c(c2)OCO3)o1,14,-2
NS(=O)(=O)c1ccc(NC(=O)CCC(=O)c2ccc(F)cc2)cc1,6,2
Cc1cc(C(=O)Cn2cnc3ccsc3c2=O)c(C)n1CCc1ccc(F)cc1,-5,-2
Cc1c(C(=O)N2CCN(c3ncccn3)CC2)oc2ccc(Cl)cc12,23,10
O=C(NCC(c1ccco1)N1CCCCC1)Nc1ccc(Cl)c(Cl)c1 (configuration not stated),14,12
NNC(=O)CCN1CCN(c2ccccc2)CC1,-100,-74
Nc1ncn([C@@H]2O[C@H](CO)[C@@H](O)[C@H]2O)c(=O)n1,-2,2
Cc1ccc(NC(=O)CN2CCCC2c2cccn2C)cc1C (configuration not stated),8,5
CCN(CC)CCn1c2ccccc2c2nc3cc(C(=O)O)ccc3nc21,2,-1
O=S(=O)(c1cccc2nsnc12)N1CCNCC1,0,6
O=C(CNc1ccccc1C(=O)NCc1ccco1)Nc1ccc(N2CCOCC2)cc1,12,-10
Cc1ccc(NC(=O)CN(c2nccs2)S(=O)(=O)c2ccccc2)cc1,6,-2
C=CCn1c(C)cc(C(C)(C)c2cc(C)n(CC=C)c2C)c1C,4,4
COCCN1C(=O)/C(=C\N2CCN(c3ccc(OC)cc3)CC2)C(=O)NC1=S,-2,0
CCCC(C)(COC(N)=O)COC(=O)NC(C)C (configuration not stated),12,18
Cc1c(O)ccc2c(CN(C)CC3COc4ccccc4O3)cc(=O)oc12 (configuration not stated),12,4
COc1ccnc(N2CCN(C(=O)OC(C)(C)C)CC2)n1,2,1
S=c1[nH]nc(-c2ccncc2)n1C1CC1,72,48
COc1cc2c(cc1NC(=O)C(C)Sc1nnc(C)c(=O)n1N)oc1ccccc12 (configuration not stated),14,0
CCOC(=O)c1oc2ccccc2c1CSc1nc2ccccc2n1CCC#N,9,6
Cn1nc(C(=O)NCCc2ccc(F)cc2)c2ccccc2c1=O,17,6
COc1ccccc1CNC(=O)C(CC(C)C)NC(N)=O (configuration not stated),12,14
COc1ccc(OC)c(C2(O)CSC(=Nc3cccnc3)N2Cc2ccco2)c1 (configuration not stated),5,8
O=c1[nH]c(CSc2nnc3ccccn23)nc2ccccc12,7,-4
Cc1nn(Cc2c(Cl)cccc2Cl)c(Cl)c1CN1CCN(CC(=O)N2CCCC2)CC1,-10,-4
NC(=O)N/N=C1\CCS(=O)(=O)c2ccc(F)cc21,8,8
Cc1nn(-c2ccccc2)c2sc(C(=O)OCC(=O)c3ccccc3)cc12,26,-1
CC1CC1C(=O)OCC(=O)Nc1ccc2[nH]c(=O)[nH]c2c1 (configuration not stated),30,30
O=c1c2ccc(-c3nnc(SCc4cn5ccccc5n4)o3)cc2nc2n1CCCCC2,30,13
Cn1ccsc1=NC(=O)/C=C/c1cc(Cl)c2c(c1)OCCCO2,22,14

# (next part)
SMILES,BmaI1 enzyme,BmaI1 enzyme counterscreen
O=C(COC(=O)c1ccc(S(=O)(=O)Nc2ccccc2)cc1)NCC1CCCO1 (configuration not stated),16,10
Cc1ccccc1N1C(=O)C=CC1=O,82*,4.0*
C[C@@H]1O[C@@H](OC[C@H]2O[C@@H](Oc3c(-c4ccc(O)c(O)c4)oc4cc(O)cc(O)c4c3=O)[C@H](O)[C@@H](O)[C@@H]2O)[C@H](O)[C@H](O)[C@H]1O,63,26
NS(=O)(=O)c1cc(C(=O)O)c(NCc2ccco2)cc1Cl,22,50
COC(=O)c1[nH]c(COc2ncnc3ccccc23)c(C(=O)OC)c1C,14,10
CCOC(=O)c1cc(-c2cccnc2)nc2c1c(C)nn2C,8,7
C[C@H](NC(=O)c1ccco1)C(=O)Nc1ccc(S(=O)(=O)N2CCCC2)cc1,13,7
CCCN(Cc1nc2cc(Cl)ccc2c(=O)[nH]1)C(=S)NC,51,10
COC(=O)[C@@H]1CC(O)CN1S(=O)(=O)c1ccc(C)cc1 (some centres not stated),-8,-10
CCOC(=O)c1c(N)n(CC(C)NC(=O)COc2ccccc2)c2nc3ccccc3nc12 (configuration not stated),10,6

# Filtered by structure: the entries above containing an aryl methoxy group
SMILES,BmaI1 enzyme,BmaI1 enzyme counterscreen
COc1ccc(-n2c(C)cc(C(=O)COC(=O)c3ccc(O)cc3O)c2C)cc1,10,-2
COc1cc(S(=O)(=O)N2CCOCC2)ccc1NC(=O)COC(C)=O,5,2
COc1ccc(C(=O)CSc2n[nH]c(=O)[nH]c2=O)cc1,8,6
COC(=O)C(C)Sc1nnc(-c2ccc(OC)cc2)n1-c1ccccc1 (configuration not stated),8,4
COc1ccc2ccc(Oc3ncccn3)cc2c1,8,8
COc1ccccc1NS(=O)(=O)c1ccc2oc(SC)nc2c1,4,4
COc1ccc2ccccc2c1/C=N/NC(=O)C1CC1,6,0
COc1cc(N)c(Cl)cc1C(=O)OCC(=O)Nc1ccc(N2CCOCC2)cc1,9,8
COc1cccc(N(C)C(=O)c2nn(Cc3ccccc3)c(=O)c3ccccc23)n1,14,15
COc1cc(C(=O)OCC(=O)N(C)C2CCS(=O)(=O)C2)ccc1OCc1c(C)noc1C (configuration not stated),-4,-6
COCCN1C(=O)/C(=C\N2CCN(c3ccc(OC)cc3)CC2)C(=O)NC1=S,-2,0
COc1ccnc(N2CCN(C(=O)OC(C)(C)C)CC2)n1,2,1
COc1cc2c(cc1NC(=O)C(C)Sc1nnc(C)c(=O)n1N)oc1ccccc12 (configuration not stated),14,0
COc1ccccc1CNC(=O)C(CC(C)C)NC(N)=O (configuration not stated),12,14
COc1ccc(OC)c(C2(O)CSC(=Nc3cccnc3)N2Cc2ccco2)c1 (configuration not stated),5,8

# Bioassay records from PubChem.

# Some of the compounds tested. The share of hits here may be higher or lower than overall.
